Compound activity deposited in PubChem BioAssay by National Center for Advancing Translational Sciences (NCATS).
VACV mCherry inh: inhibitors of vaccinia virus infection (mCherry reporter signal); Vaccinia virus mCherry reporter infection, fluorescence; about a quarter of the inactives have no number; Potency, µM (series often up to 36.5 µM), for the others: at the highest dose activity change, negative = inhibition, actives largely listed as inhibitors; actives 0.63% (n = 310,000); AID 720579; active = well fitted inhibition curve with a large enough effect; inconclusive = small, poorly fitted or top-dose-only effect; inactive = no such curve, though single readings can be large or run the other way; tested in A549 cells; note: nearly all actives have a fitted effect of over 35% in size; inactives centre near -10
VACV Venus inh: vaccinia inhibition (Venus reporter); AID 720580; Vaccinia virus Venus reporter expression, fluorescence; actives 0.46% (n = 330,000); Potency, µM (doses to about 36.5 µM), without a hit: at the top dose activity change, negative = inhibition, most hits filed as inhibitors; active means well fitted inhibition curve with a large enough effect; inconclusive means small, poorly fitted or top-dose-only effect; inactive means no such curve, though single readings can be large or run the other way; tested in A549 cells; note: nearly all actives have a fitted effect of over 30% in size; inactives centre near -10
Active calls of the source: *; i = inactive; ? = inconclusive; / = not tested or not shown; & = joins results of further samples. % is set by controls: 0 for no effect and ±100 for the full control effect; potency is the fitted concentration of half-maximal effect.

SMILES	VACV mCherry inh	VACV Venus inh
Cc1ccc(S(=O)(=O)N2CC(O)CC2C(=O)OCC(=O)c2ccccc2Cl)cc1C (stereo not drawn)	-5%	-16%
C/C=C/c1cccc(-c2nc(C(=O)NC3CCC3)cc3c2[C@H](CCO)N(S(=O)C(C)(C)C)C3)c1 (stereo partly drawn)	1%	-1%
CCCc1[nH]nc2c1C(c1ccsc1)C(C#N)=C(N)O2 (stereo not drawn)	-9%	-17%
CCOC(=O)C1=C(CN(CC)Cc2ccccc2)NC(=O)NC1c1ccc(OC)cc1 (stereo not drawn)	i	-9%
O=C(/C=C/c1cccs1)NC(=S)NNC(=O)Cc1cccs1	/	-23%
O=C(NC1CCC(=O)N(CCSc2ccccc2)CC1)OCc1ccccc1 (stereo not drawn)	?	-21%&-16%
CC1=NN(C(N)=S)C(=O)C1N=Nc1ccccc1 (stereo not drawn)	-4%	-16%
CCOC(=O)N1CCN(Cc2nc(-c3ccccc3)no2)CC1	-8%	-5%
O=C(NCCCn1ccnc1)c1cc(-c2ccncc2)nc2ccccc12	0%	0%
O=C(Cn1c(NCCO)nc2ccccc21)c1ccc(Cl)cc1	i	-11%
COc1cccc(N(CC(=O)N2CCN(C)CC2)S(=O)(=O)c2ccc(C)cc2)c1	-24%	-13%
COC(=O)c1ccc(Cn2nnc3ccccc32)cc1	-5%	-6%
COc1cccc(C(=O)N(Cc2nc(-c3cccc(C)c3)no2)C(C)C)c1OC	/	?
COc1ccc(NC(=O)CCN2CCN(S(=O)(=O)c3ccc(C(C)C)cc3)CC2)cc1	-10%	-22%
Cc1nc(NC(=O)c2csc3ccccc23)sc1C	-17%	-4%
CCOC(=O)c1oc2cc(O)c(CC)cc2c(=O)c1-c1cscn1	i	-12%
CC(C)OCCCNC(=O)c1cn(C)c2ccc(S(=O)(=O)N(C)C3CCCCC3)cc2c1=O	-15%	-1%
CCn1cc(C(=O)N(C)c2ccc(C(C)C)cc2)c2cc(OC)c(OC)cc2c1=O	-20%	-23%
CCn1c(CNc2ccc(Cl)cc2)nnc1SCCN1CCCCC1	/	-8%
c1ccc(N=NC2=NN(c3ccccc3)CS2)cc1	-14%	-4%
COc1ccc(/C=C2\SC(=O)N(CC(=O)Nc3ccc(O)cc3)C2=O)cc1OC	?	-2%
CC(C)(C)C(=O)Nc1ccccc1C(=O)Nc1ccccn1	-10%	-8%
CCOc1ccccc1N1CCN(S(=O)(=O)c2ccc(Cl)s2)CC1	i	-10%
O=C(NCCc1ccccc1)c1cc(Sc2cccc(Cl)c2)nc2ccccc12	-6%	-2%
COc1ccc(NC(=O)C2CC(=O)N(C(C)C)C2)cc1 (stereo not drawn)	/	-11%
COc1cc(/C=N/Nc2nncc3ccccc23)cc(OC)c1OC	-22%	-26%
CC(C)(C)C(=O)NC1=NN(c2c(Cl)cc(Cl)cc2Cl)C(=O)C1	-7%	-16%
COc1ccc(Cc2nc3ccc(C(=O)N(C)CC4COCCO4)cc3o2)cc1 (stereo not drawn)	-18%	-17%
O=C(NCc1ccccc1Cl)C1CCCN(c2ncnc3onc(-c4ccc(F)cc4)c23)C1 (stereo not drawn)	-9%	-19%
Clc1cccc(N/N=C(\Cc2nc3ccccc3[nH]2)c2ccccc2)c1	-17%	-27%
COc1cc(NC(=O)CSc2ccc(-c3sc(-c4ccccc4)nc3C)nn2)cc(OC)c1	-21%	-13%
CCCN(CC(=O)Nc1ccccc1C)C(=O)CCCNC(=O)c1ccc(Cl)cc1	-12%	-5%
C[C@]12CCC3C(CC[C@H]4C[C@@H](O)CC[C@]34C)C1C[C@@H](N)[C@@H]2O (stereo partly drawn)	-7%	-9%
CN(C)S(=O)(=O)NC(=O)C1=C(N2CCCC2)COC1=O	i	-18%
CNS(=O)(=O)c1cc(N)ccc1C	-1%	-3%
Clc1ccccc1Cn1nc(-c2ccccc2)nc1-c1ccccc1	-15%	-3%
CC1CCCC(C)N1C(=O)CN1C(=O)NC2(CCCCCC2)C1=O (stereo not drawn)	i	-15%
CCC(=O)N1CCc2cc(Br)cc(S(=O)(=O)N3CCCC(C(=O)Nc4ccc(C)c(F)c4)C3)c21 (stereo not drawn)	-21%	-20%
O=S(=O)(NCCSc1ccccn1)c1ccc(Cl)cc1	-2%	-1%
COc1ccc(CNC(=O)C2CCN(C(=O)c3csc(Nc4ccc(C)cc4)n3)CC2)cc1	?	-28%
O=C(Nc1nc(-c2ccc(F)cc2)cs1)c1cccnc1	-2%	-5%
O=C(CSc1nnc(-c2ccc(Br)cc2)o1)N1CCN(C(=O)c2ccco2)CC1	0.63µM*	5µM*
COC(=O)c1cc2c(N)c(C(=O)c3ccccc3)sc2nc1C(OC)OC	-10%	5%
COc1cc2c(cc1OC)CN(Cc1cc(OC)c(O)c(OC)c1)CC2	?	-6%
Cc1cc(N2CCN(C(c3ccccc3)c3ccc(Cl)cc3)CC2)n2ncnc2n1 (stereo not drawn)	-12%	-5%
Cc1ccc(CNC(=O)c2cc3c(C)nc4ccccc4c3o2)cc1	-17%	-21%
COc1ccc(C(C(=O)NC2CCCCC2)n2c(=O)c(-c3cc4ccccc4[nH]3)nc3ccccc32)cc1 (stereo not drawn)	-27%	-23%
CCOC(=O)CSc1nc2ccccc2c(=O)n1-c1ccc(C)cn1	i	1%
CC(Nc1nc(-c2ccc(F)cc2)cs1)c1nc2cc(Cl)c(Cl)cc2n1CCCO (stereo not drawn)	10µM*	?
COc1ccc(CCNC(=O)CN2C(=O)C3(OCCCO3)c3ccccc32)cc1OC	-19%	0%
CCCCN(C)CCNC(=O)c1ccc2c(c1)NC(=O)C(N1CCCCC1)S2 (stereo not drawn)	/	-27%
CCOC(=O)[C@]12CCC=C1N(Cc1ccco1)C(=O)[C@H](CC(=O)N1CCN(C(=O)c3ccco3)CC1)C2	19%	3%
C#CC[N+](CC)(CC)CC#Cc1ccccc1	?	-27%
CCCCCCCNC(=O)C1CC(=O)N(C)C(=Nc2ccc(OC)cc2)S1 (stereo not drawn)	i	-22%
COc1ccc(NC(=O)C2CCCO2)c(OC)c1 (stereo not drawn)	i	-3%
COc1ccc(CNC(=O)c2cccc3c(-c4cccc(C(N)=O)c4)coc23)cc1OC	-4%	-30%
CCOc1ccc(C(=O)Nc2cccc(-c3ccc4nncn4n3)c2)cc1	-9%	-13%
CC1CCCCN1CCCNC(=O)c1cc(Sc2ccc(Cl)cc2)nc2ccccc12 (stereo not drawn)	-28%	-28%
Fc1ccc(N2CCN(c3ncnc4c3nc3n4CCCCC3)CC2)cc1	?	?
Cc1cc(N/N=C/c2ccccc2F)c2ccccc2n1	-8%	-2%

4 compounds drawn at random from those above:
SMILES	VACV mCherry inh	VACV Venus inh
CCOC(=O)[C@]12CCC=C1N(Cc1ccco1)C(=O)[C@H](CC(=O)N1CCN(C(=O)c3ccco3)CC1)C2	19%	3%
CCOc1ccc(C(=O)Nc2cccc(-c3ccc4nncn4n3)c2)cc1	-9%	-13%
Cc1cc(N/N=C/c2ccccc2F)c2ccccc2n1	-8%	-2%
COc1ccc(NC(=O)C2CCCO2)c(OC)c1 (stereo not drawn)	i	-3%

New compounds follow:
SMILES	VACV mCherry inh	VACV Venus inh
COc1ccc(C2C=C(c3ccccc3)Nc3nc(NC(=O)/C=C/c4ccc(F)cc4)nn32)cc1 (stereo not drawn)	9%	-2%
COc1cccc(C2CC(C(F)(F)F)n3ncc(C(=O)Nc4c(C)n(C)n(-c5ccccc5)c4=O)c3N2)c1 (stereo not drawn)	-12%	-20%
COCCn1c(SC(C(=O)Nc2cc(C)ccc2OC)c2ccccc2)nnc1-c1ccc(Cl)cc1 (stereo not drawn)	i	-9%
CCn1c(=O)n(CC)c2cc(N3CCCC3)c(NC(=O)c3cc(Cl)ccc3OC)cc21	-5%	-3%
C[C@@H]1CCCCO[C@@H](CN(C)S(=O)(=O)c2ccc(F)cc2)[C@@H](C)CN([C@H](C)CO)C(=O)c2cc(N(C)C)ccc2O1	-28%	-14%
COC(=O)C(NC(=O)CCC(=O)N[C@@H](C(=O)OC)c1ccccc1)c1ccccc1 (stereo partly drawn)	i	-6%
COC(=O)c1cccc(NC(=O)CCSc2ccc(Cl)cc2)c1C	/	-11%
COC(=O)c1ccc2c(c1)N(CC(=O)Nc1ccc(OC)c(Cl)c1)C(=O)c1ccccc1S2	-1%	-2%
Cc1ccc(NC(=S)NC(NC(=O)N(C)C)C(Cl)(Cl)Cl)cc1 (stereo not drawn)	-1%	-6%
Cc1ccc(NC(=O)C2C3C=CC4(O3)C2C(=O)N(CCCN2CCCCC2)C4C(=O)NC2CCCCC2)cc1Cl (stereo not drawn)	-18%	-12%
O=C(CN1CCN(Cc2ccc(F)cc2Cl)C1=O)NCCCN1CCOCC1	i	-12%
CC(C)C(C)NC(=O)COC(=O)C1CCN(S(=O)(=O)c2ccc3c(c2)OCCO3)CC1 (stereo not drawn)	i	-14%
COc1ccc(-c2cnc3c(NC(C)=O)cc(-c4ccc(C(=O)N5CCOCC5)cc4)cn23)cc1OC	9%	16%
CC1=C(C(=O)Nc2ccccc2C)C(c2cccnc2)n2nc(CCCO)nc2N1 (stereo not drawn)	/	-4%
O=S(=O)(Nc1ncccn1)c1ccc(NC(=S)N2CCN(Cc3ccc(F)cc3Cl)CC2)cc1	-15%	-11%
COCc1nnc(NC(=O)c2cc(C(=O)OC)cc([N+](=O)[O-])c2)s1	-11%	-14%
O=C(CSc1nc2c([nH]c3ccccc32)c(=O)n1-c1ccc(Cl)cc1)NCc1ccccc1	-14%	-7%
CCc1noc(C)c1C(=O)Nc1cc(S(=O)(=O)N2CCOCC2)ccc1OCC(F)(F)F	i	-5%
COc1ccccc1N1CCN(CCC(=O)Nc2cccc(F)c2)CC1	-14%&-11%	-15%&-9%
CC(Cn1cncn1)NC(=O)c1cc(COc2cccc(C(F)(F)F)c2)on1 (stereo not drawn)	i	-7%
C#CCOCCOCCOCCNc1nc(N2CCN(C(=O)CCCCCCCCCCNC(=O)[C@H](CCCCN)n3cc(CCCC(=O)O)nn3)CC2)nc(N2CCN(C(=O)CCCCCCCCCCNC(=O)[C@H](CCCN=C(N)N)n3cc(C[C@@H](C)CC)nn3)CC2)n1	?	11µM*
CCN(Cc1nc2ccccc2c(=O)[nH]1)Cc1cc(=O)oc2cc(OC)ccc12	/	-3%
C=CC[C@H](CC(=O)OC(C)(C)C)C(=O)OC[C@@H]1CCCN1C(=O)[C@H](CC=C)CC(=O)N[C@H](CO)Cc1ccccc1	-23%	-25%
CC1(Cc2ccc(C(F)(F)F)nc2)C(=O)Nc2cc(-c3ccccc3Cl)ccc21 (stereo not drawn)	?	?

Profiles from above. Values in the order: VACV mCherry inh, VACV Venus inh
`CCN(Cc1nc2ccccc2c(=O)[nH]1)Cc1cc(=O)oc2cc(OC)ccc12` is entered as /, -3%
`C#CCOCCOCCOCCNc1nc(N2CCN(C(=O)CCCCCCCCCCNC(=O)[C@H](CCCCN)n3cc(CCCC(=O)O)nn3)CC2)nc(N2CCN(C(=O)CCCCCCCCCCNC(=O)[C@H](CCCN=C(N)N)n3cc(C[C@@H](C)CC)nn3)CC2)n1` is entered as ?, 11µM*
`CC1=C(C(=O)Nc2ccccc2C)C(c2cccnc2)n2nc(CCCO)nc2N1` (stereo not drawn) is entered as /, -4%
`COCc1nnc(NC(=O)c2cc(C(=O)OC)cc([N+](=O)[O-])c2)s1` is entered as -11%, -14%
`COc1ccc(-c2cnc3c(NC(C)=O)cc(-c4ccc(C(=O)N5CCOCC5)cc4)cn23)cc1OC` is entered as 9%, 16%

(cont.)
SMILES	VACV mCherry inh	VACV Venus inh
COc1ccc(NC(=O)C2CCC(CNS(=O)(=O)c3ccc(Br)s3)CC2)c(OC)c1 (stereo not drawn)	-12%	-15%
O=C(COC(=O)C1CCN(S(=O)(=O)c2ccc3c(c2)OCCO3)CC1)NC1CCCCC1	-12%	0%
Cn1c(C(=O)NCCN2CCN(Cc3ccccc3)CC2)cc2c(=O)n(C)c3ccccc3c21	-20%	-15%
COc1ccc(N2C(=O)C(CC(=O)Nc3ccccc3)N(Cc3ccccn3)C2=S)cc1 (stereo not drawn)	-5%	-1%
CC(C)(C)NC(=O)C1c2ccccc2OCC(=O)N1Cc1ccco1 (stereo not drawn)	1%	-3%
C/C(CC(=O)Nc1cccc(F)c1)=N\NC(=O)C(=O)NC1CCCCC1	i	0%
Cc1nc2scc(-c3ccc(Cl)cc3)c2c(=O)o1	-12%	-13%
CCCCOc1cccc(C(=O)N2CCN(CCc3ccncc3)CC2)c1	-9%	-10%
COc1ccc(-c2csc(C(C)(O)c3ccc(F)c(F)c3)n2)cn1 (stereo not drawn)	i	-9%
COc1cc(NC(=O)CSc2nc(=O)n(CCCN3CCOCC3)c3c2CCC3)cc(OC)c1	-10%	-15%
CCOCN(C(=O)Cn1cnc2cc(C)c(C)cc21)c1c(C)cccc1CC	-22%	?
COC(=O)C[C@@H]1C=C[C@@H](NS(=O)(=O)c2ccccc2OC)[C@@H](CO)O1	1%	-5%
